Screening data from PubChem BioAssay.
Vaccinia mCherry – inhibitors of vaccinia virus infection (mCherry reporter signal); Vaccinia virus mCherry reporter infection, fluorescence; about a quarter of the inactives have no number; Potency, µM (top dose mostly 36.5 µM), for inactives: at the top dose activity change, negative = inhibition, actives largely listed as inhibitors; 310,000 compounds, 0.63% hits; AID 720579; active = well fitted inhibition curve with a large enough effect; inconclusive = small, poorly fitted or top-dose-only effect; inactive = no such curve, though single readings can be large or run the other way; tested in A549 cells; further: nearly all actives have a fitted effect of over 35% in size; inactives centre near -10
VACV Venus inh – inhibitors of vaccinia virus (Venus reporter) | Vaccinia virus Venus reporter expression, fluorescence | Potency, µM (top dose mostly 36.5 µM), for inactives: at the highest dose activity change, negative = inhibition, actives largely listed as inhibitors | 330,000 compounds, 0.46% hits | AID 720580; active means well fitted inhibition curve with a large enough effect; inconclusive means small, poorly fitted or top-dose-only effect; inactive means no such curve, though single readings can be large or run the other way; tested in A549 cells; further: nearly all actives have a fitted effect of over 30% in size; inactives centre near -10
The depositor's hits bear a star; i = inactive; ? = inconclusive; nt = no result given; + = active, no number; & = joins results of further samples; [ ] = remark or other dose. On the % scale 0 is the no-effect control and ±100 the full control effect; potency means the concentration at half of the fitted maximal effect. Hits appear at their usual frequency (roughly 0.82% active in at least one column).

SMILES | Vaccinia mCherry | VACV Venus inh
CCc1ccc(C(=O)Nc2cc3c(cc2Cl)OCCCO3)cc1 | i | -12.5%
CCc1ccc(N=c2c([N+](=O)[O-])nn(-c3ccc4c(c3)OCCO4)n2O)cc1 | -13.4% | -6.7%
O=c1[nH]c(=S)[nH]cc1Oc1ccccc1 | -6.2% | 0.4%
Cc1c(NC(=O)COC(=O)c2ncc(Cl)c(Cl)c2Cl)c(=O)n(-c2ccccc2)n1C | i | -2.1%
CCN(CC)S(=O)(=O)c1ccc2c(c1)nc(SC(C)C(=O)NCC1CCCO1)n2CC (stereo not drawn) | -17.9% | -9.7%
O=C(NC1CCCC1)C(c1cccnc1)N(Cc1ccccc1)C(=O)c1csnn1 (stereo not drawn) | -5.3% | -6.5%
CCOC(=O)c1c(C)[nH]c(CCC(=O)NCc2cc(OC)c(OC)c(OC)c2)c1C | -7.1% | -9.1%
CCc1cc(C(=O)N2CCN(c3ncccn3)CC2)sc1C | -21.7% | -28.3%
O=C(CCN1C(=O)C2CCCCC2C1=O)Nc1ccc(Br)cc1F (stereo not drawn) | i | -14.7%
COc1ccc(Cc2nc3c4cnn(-c5cccc(F)c5)c4ncn3n2)cc1 | -12.0% | -15.0%
O=C(Nc1ccc(-c2nc3ccccc3s2)c(OC(=O)c2ccccc2)c1)c1ccccc1 | -13.9% | 3.2%
C[C@]12CC[C@@H]3c4ccc(O[C@@H]5O[C@H](C(=O)O)[C@@H](O)[C@H](O)[C@H]5O)cc4CC[C@H]3[C@@H]1C[C@@H](O)[C@@H]2O | -1.2% | -11.6%
O=C(CN1C(=O)C2CC=CCC2C1=O)OCc1cc(=O)n2cc(Br)ccc2n1 (stereo not drawn) | -11.5% | -1.1%
C=CC(=O)NC(C)(C)CCN1CCOCC1 | i | 1.1%
Cc1ccccc1-c1cc2nc(NCc3ccccc3F)n(C)c(=O)c2s1 | -4.9% | -11.4%
CCCn1c(=NC(=O)c2ccncc2)c(C#N)cc2c(=O)n3cccc(C)c3nc21 | -5.0% | -4.6%
CCOC(=O)CCNCC1COc2ccccc2O1 (stereo not drawn) | -8.4% | -7.0%
CC(C)c1ccc(S(=O)(=O)NCCCN2CCOCC2)cc1 | -23.4% | -8.9%
O=C1N=C(N2CCN(c3cccc4ccccc34)CC2)S/C1=C/c1cccs1 | nt | ?
Cc1ccc(Cl)cc1N1CCN(CC(=O)Nc2ccc(CN3CCCCC3)cc2)CC1 | -12.4%[1.46 µM] | -16.3%
COc1cccc(/C=C/C(=O)c2ccc3c(c2)OCO3)c1OC | 12.6µM* | ?
Cc1cccc(CNC(=O)c2ccc3nc(Cc4ccccc4F)oc3c2)n1 | -22.5% | -8.1%
O=C(Nc1cc(Cl)ccc1-n1cncn1)c1ccc([N+](=O)[O-])o1 | ? | -27.9%
O=c1c(Cl)c2oc3ccccc3nc-2c2ccccc12 | ? | 6.6%
Cc1nccc(-c2cccc(NC(=O)Nc3ccc(Cl)cc3)c2)n1 | -16.1% | -16.4%
COc1cc2c(cc1OC)C13CCN4CC5=CCOC6CC(=O)N2C1C6C5CC43 (stereo not drawn) (tested in a mixture with another compound) | -5.0% | +
N/C(=N\OC(=O)COc1ccc2ccccc2c1)c1ccncc1 | -1.3% | -10.4%
COc1ccccc1CNC(=O)c1ccc(Cn2c(SCc3ccccc3)nc3cccnc32)cc1 | -14.0% | -14.1%
COc1cc([N+](=O)[O-])ccc1NC(=O)CSc1nccn1C | i | -5.6%
COC(=O)c1ccccc1NC(=S)NC(=O)c1ccccc1 | nt | -5.7%
O=C(COC(=O)c1ccccc1NCCO)Nc1cccc(S(=O)(=O)NC2=NCCCCC2)c1 | 0.2% | -1.8%
O=C(OCc1cc(=O)n2ccsc2n1)c1ccc(OC(F)F)cc1 | -14.0% | -1.2%
CCOC(=O)C(C)NC(=O)C1CCN(c2ncnc3c2nc2n3CCCCC2)CC1 (stereo not drawn) | -14.6% | -8.5%
Cc1sc2ncnc(N3CCC(C(=O)N(C)CC(=O)Nc4ccccc4Br)CC3)c2c1C | -21.2% | -25.4%
Cc1ccc(C)c(SCC(=O)OCC(=O)NCc2ccccc2)c1 | i | -8.3%
COc1ccccc1NC(=O)C(C/C=C(/C)Cl)C(C)=O (stereo not drawn) | -15.5% | -7.4%
COc1ccc2nc(NC(=O)c3nc(S(=O)(=O)Cc4cccc(C)c4)ncc3Cl)sc2c1 | ? | ?
CC1=C(C)CC(C(=O)c2ccccc2)C(C(=O)O)C1 (stereo not drawn) | -5.7% | -2.2%
O=C(COC(=O)Cn1cnc2ccccc2c1=O)NCCC1=CCCCC1 | i | -18.7%
Cc1ccccc1S(=O)(=O)N1C[C@H]2CON(C)[C@H]2C[C@H]1c1cccc(-c2ccccc2)c1 | -19.3% | -4.6%
CCOC(=O)c1c(NC(=S)SC)sc(C(=O)N2CCc3ccccc3C2)c1C | -10.4% | -13.2%
CN1CCc2c(sc(/N=C/c3cc(C(C)(C)C)ccc3O)c2C#N)C1 | i | -11.9%
CSc1nc(N(C)C)nc(N2CC(=O)N(CCNS(=O)(=O)c3ccc(C)cc3)C2=N)n1 | -9.0% | -5.0%
CC(C)S(=O)(=O)N1CCCC(C(=O)c2cccc(Cl)c2)C1 (stereo not drawn) | -7.1% | -13.9%
O=C1c2ccccc2C(=O)N1Cc1cc(-c2ccc(Cl)cc2)no1 | i | -13.8%
Cc1ccc(Sc2c(C=O)c3ccccc3n2C)cc1 | nt | ?
CCn1ncc(Br)c1C(=O)Nc1cc([N+](=O)[O-])ccc1C | -13.8% | -15.5%
Cc1noc(C)c1COc1ccc(C(=O)N2CCN(c3ccccc3F)CC2)cc1 | -2.3% | -5.2%
CC(C)(CO)NCC(O)COc1ccc2c(c1)CCC2 (stereo not drawn) | -8.2% | -14.2%
CCCSc1ncc(Cl)c(C(=O)Nc2ccc(S(=O)(=O)Nc3ncccn3)cc2)n1 | -19.7%&-5.1% | -16.0%&-1.7%
Cc1[nH]c(SCC(=O)Nc2cc(C(N)=O)cc(C(N)=O)c2)nc1Cc1ccccc1 | ? | -7.1%
COc1ccc(CC(=O)NCc2cn3ccsc3n2)cc1 | -13.3% | -2.7%
O=C(NC1CCCC1)N[C@@H]1CC[C@@H](CC(=O)N2CCOCC2)O[C@@H]1CO | -7.7% | 0.9%
C[C@H](CO)N1C[C@H](C)[C@@H](CN(C)S(=O)(=O)c2ccc(F)cc2)Oc2ccc(NC(=O)NC3CCCCC3)cc2C1=O | -2.2% | -15.4%
CCOC(=O)N1CCC(NCc2c(C(=O)N(C)Cc3ccccc3)nc3ccccn23)CC1 | -1.2% | -5.1%
COc1cc(OC)c(NC(=O)N2CCN3CCCCC3C2)cc1Cl (stereo not drawn) | -9.9% | -8.0%
CCc1nn(CC(=O)NCCCN2CCN(CC)CC2)c(=O)c2cc3occc3n12 | -4.9% | 9.2%
COCCCn1cnc2oc3nc4ccccc4nc3c2c1=O | nt | 5.1%
COc1ccc(OC)c(CCNC(=O)CN2C(=O)CC(C)(C)S(=O)(=O)c3ccccc32)c1 | 2.2% | 6.6%
C[C@H]1CN=C(N(C)C)N1CC1CCCC1 | i | -8.8%

5 compounds picked at random from the list so far, as already listed:
SMILES | Vaccinia mCherry | VACV Venus inh
CCOC(=O)c1c(C)[nH]c(CCC(=O)NCc2cc(OC)c(OC)c(OC)c2)c1C | -7.1% | -9.1%
O=C1N=C(N2CCN(c3cccc4ccccc34)CC2)S/C1=C/c1cccs1 | nt | ?
O=c1c(Cl)c2oc3ccccc3nc-2c2ccccc12 | ? | 6.6%
COc1ccc(CC(=O)NCc2cn3ccsc3n2)cc1 | -13.3% | -2.7%
N/C(=N\OC(=O)COc1ccc2ccccc2c1)c1ccncc1 | -1.3% | -10.4%

Next part.
SMILES | Vaccinia mCherry | VACV Venus inh
COc1ccc(N2CC(C(=O)Nc3nc(-c4ccccc4)c(C(C)=O)s3)CC2=O)c(OC)c1 (stereo not drawn) | -24.7% | -19.2%
COc1ccc(S(=O)(=O)N2CCC(C(=O)N3CCCC3)CC2)cc1Cl | -4.7% | -12.5%
Cc1sc(NCc2ccccc2)nc1-c1ccccc1 | -16.6% | -10.4%
CC(=O)c1c(C)[nH]c(C(=O)CSc2ccc(F)cc2)c1C | i | -18.8%
CCOC(=O)c1[nH]c(C)c(C(=O)OCC(=O)Nc2sc3c(c2C#N)CCCCC3)c1C | -3.3% | -2.7%
Cc1ccc(CC2CC(=O)N(c3cc(Cl)ccn3)C2=O)cc1 (stereo not drawn) | -7.1% | 1.5%
CCc1ccc(OC(C)C(=O)Nc2ccc(S(=O)(=O)Nc3cc(C)on3)cc2)cc1 (stereo not drawn) | i | 0.5%
COc1ccc(Br)cc1S(=O)(=O)N1CCN=C1c1ccccc1 | -11.2% | -22.0%
CSCCC(NC(=O)c1ccc(=O)n(C)n1)c1nc2ccccc2[nH]1 (stereo not drawn) | -22.4% | -18.4%
COc1ccccc1/C=N/NC(=O)C(NC(=O)c1ccccc1)=C(C)C | -12.2% | -8.4%
CCOc1ccc(C(C)NC(=O)c2ccccc2F)cc1 (stereo not drawn) | i | -2.2%
CC(C)Sc1nc2[nH]ncc2c(=O)[nH]1 | i | 7.9%
Cc1ccc2c(Cl)c(C(=O)NCCc3ccccc3)sc2c1 | i | -19.9%
CC(C)c1ccc(C(=O)NN2C(=O)C3CCCCC3C2=O)cc1 (stereo not drawn) | i | -23.4%
O=C(NCc1cccc(C(F)(F)F)c1)c1ccc2sc([C@@H]3O[C@H](CO)[C@H](O)[C@H](O)[C@H]3O)nc2c1 | 0.0% | -8.8%

Brought forward from above: six compounds; new compounds follow.
SMILES | Vaccinia mCherry | VACV Venus inh
COc1ccccc1/C=N/NC(=O)C(NC(=O)c1ccccc1)=C(C)C | -12.2% | -8.4%
CCOc1ccc(C(C)NC(=O)c2ccccc2F)cc1 (stereo not drawn) | i | -2.2%
CC(C)Sc1nc2[nH]ncc2c(=O)[nH]1 | i | 7.9%
Cc1ccc2c(Cl)c(C(=O)NCCc3ccccc3)sc2c1 | i | -19.9%
CC(C)c1ccc(C(=O)NN2C(=O)C3CCCCC3C2=O)cc1 (stereo not drawn) | i | -23.4%
O=C(NCc1cccc(C(F)(F)F)c1)c1ccc2sc([C@@H]3O[C@H](CO)[C@H](O)[C@H](O)[C@H]3O)nc2c1 | 0.0% | -8.8%
COC(=O)c1ccccc1Oc1cc(C(F)(F)F)nc(-c2ccccn2)n1 | -17.8%[7.34 µM] | -11.2%[7.34 µM]
O=C(Nc1ccc2c(c1)Cc1cc([N+](=O)[O-])ccc1-2)C(F)(F)F | -16.8% | -11.7%
O=C(O)CSc1nnc(-c2cccnc2)n1Cc1ccccc1 | -13.2% | -3.2%
COc1cccc(C(=O)NCCS(=O)(=O)NCCc2ccc(OC)c(OC)c2)c1 | -21.7% | -12.2%
O=C(CCc1ccccc1)NCc1ccc2c(c1)CCN2C(=O)c1ccccc1 | -9.7% | -12.3%
CN(C)C(=O)CCCc1nc(-c2ccc(Cl)cc2)no1 | -19.1% | -17.8%
COc1ccc(NC(C)=O)cc1NC(=O)c1ccc2ccccc2c1 | ? | -27.7%
COc1ccc(CN2C(=O)C(CC(=O)NCc3cccs3)CC(C(=O)N(C)C)=C2C)cc1 (stereo not drawn) | -9.9% | -14.7%
CCN(CC)S(=O)(=O)c1ccc(NC(=S)NC(=O)C(C)C)cc1 | -10.4% | -17.0%
CSCCC(NS(=O)(=O)c1ccc2c(c1)oc(=O)n2C)C(=O)NC1CCCc2ccccc21 (stereo not drawn) | -15.2% | -2.9%
COc1ccc2c(C)cc(=O)oc2c1OCC(O)CN1CCOCC1 (stereo not drawn) | 19.3% | -0.1%
Cc1cccc(C)c1NC(=O)C(C1CC1)n1c(-c2ccc(=O)[nH]c2)nc2ccccc21 (stereo not drawn) | -11.9% | -8.5%
Cc1cc(NC(=O)Nc2ccc(C)c(C)c2)no1 | -41.7% | -20.0%
CCN(CC)CCNC(=O)c1ccc(NC(=O)c2ccc(S(=O)(=O)N(C)c3ccccc3OC)cc2)cc1 | -21.9% | -20.2%
CCC(OC(=O)C1=Cc2ccccc2OC1)C(=O)NC1CCCC1 (stereo not drawn) | -29.6% | ?
CSc1ncc(C(=O)Nc2ccc(C)cc2C)c(C)n1 | 6.3% | -10.1%
CCCN1Cc2cccc(C(=O)NC(C)c3cccs3)c2C1=O (stereo not drawn) | -10.3% | -9.6%
COc1ccc(CNC(=O)C2CCN(c3nccs3)CC2)cc1 | -13.4% | -5.7%
CCc1[nH]c(=O)[nH]c1C(C)S(=O)(=O)c1ccc(C)cc1 (stereo not drawn) | i | -3.1%
CCN(Cc1ccccc1)S(=O)(=O)c1ccc(S(=O)(=O)N2CCN(C)CC2)cc1 | i | -10.0%
CCC(C(=O)NCCCN1CCN(CC)CC1)n1nc(C)n2c(cc3occc32)c1=O (stereo not drawn) | i | -9.0%
O=C1Nc2ccccc2-c2nnnn2C1N1CCC(Cc2ccccc2)CC1 (stereo not drawn) | -28.5% | -15.3%
CN(C(=O)c1cnc2n(c1=O)CCS2)C1CCCCC1 | -4.1% | -6.3%
CN1CC[C@@H]2C(=O)N3CCc4ccc(-c5ccc6c(c5)OCO6)cc4[C@@H]3C[C@@H]21 | -17.4% | -14.1%
CN(C)CCn1c2c(c(SCC(=O)Nc3ccccc3C(F)(F)F)nc1=O)CCCC2 | -5.4% | -9.0%
CN(C)c1ccc(-c2nccc(NCCN3CCOCC3)n2)cc1 | i | 0.0%
COC(=O)c1ccc(C(C(=O)NC2CCCCC2)N(Cc2ccccc2)C(=O)Cc2cccs2)cc1 (stereo not drawn) | -17.7% | -3.2%
